Assay outcomes (PubChem)
STK33 inh: inhibitors of human STK33 kinase; Q9BYT3; 0.073% of 320,000 active; purified STK33, MBP phosphorylation, ADP-Glo luminescence; inhibition, % at 10 µM;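 active = inhibition at or above 25%, using the most active replicate where run in duplicate; inactive = inhibition below 25%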
Target sequence (Q9BYT3 whole entry, looked up): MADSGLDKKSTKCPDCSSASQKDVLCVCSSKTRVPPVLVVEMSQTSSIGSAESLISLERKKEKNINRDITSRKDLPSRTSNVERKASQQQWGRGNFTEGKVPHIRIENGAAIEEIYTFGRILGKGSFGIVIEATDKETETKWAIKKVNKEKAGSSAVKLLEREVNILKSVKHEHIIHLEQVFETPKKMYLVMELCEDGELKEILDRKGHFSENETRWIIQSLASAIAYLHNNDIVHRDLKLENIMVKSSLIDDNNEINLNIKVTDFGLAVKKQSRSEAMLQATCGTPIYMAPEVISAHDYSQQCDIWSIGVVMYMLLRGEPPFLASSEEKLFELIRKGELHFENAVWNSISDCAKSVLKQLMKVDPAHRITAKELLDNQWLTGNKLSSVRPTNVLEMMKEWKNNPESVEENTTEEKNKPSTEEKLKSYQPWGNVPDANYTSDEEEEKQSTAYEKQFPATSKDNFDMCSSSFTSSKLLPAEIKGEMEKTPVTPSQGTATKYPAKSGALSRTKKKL
Active calls of the source: *.

SMILES	STK33 inh
CC(=O)N1c2ccc(S(=O)(=O)NCCc3ccccc3)cc2CC1C (configuration not stated)	-0.1
COc1cccc(-n2nnnc2SCC(=O)NCc2ccco2)c1	-0.4
O=C(CSc1ncccc1C(=O)O)NC1CCCCCCC1	-0.6
CCCCNc1cc(NC(C)=O)cc2cc(OC)c(OC)cc12	-0.2
CN(C)c1ccc(-c2noc(C3CCN(S(=O)(=O)c4cccc(C(=O)O)c4)CC3)n2)cc1	-3.1
O=C(Nc1ccc(F)cc1F)c1noc2c1CCC2	-0.1
Cc1cccc(N(C(=O)c2sc(C)nc2C)C(C(=O)NCc2ccco2)c2ccccc2)c1 (configuration not stated)	-0.7
CCCCCC(=O)Nc1ccc(N2CCN(CC)CC2)c(Cl)c1	-1.5
O=C(c1cccc(-n2cnnn2)c1)N1CCOCC1	-0.4
CN(C)c1ccc(C(CC(=O)O)C(=O)O)cc1 (configuration not stated)	0.6
FC(F)(F)c1ccc(CN2C[C@@H]3C(c4ccc(Cl)nc4)C4(c5cccnc5)CC3(C4)[C@H]2c2ccccc2)cc1 (some centres not stated)	-0.9
O=C1NC2(Nc3ccccc31)C(=O)Nc1ccccc12 (configuration not stated)	2.3
CCC(=O)N1CCc2cc(Br)cc(S(=O)(=O)CCC(=O)NCCOC)c21	0.0
O=C(CCc1nc(-c2ccccc2)no1)NCc1cccnc1	0.0
CCC(=O)N1CCN(c2ccccc2NC(=O)c2cccc(C)c2)CC1	-0.5
CCCOc1ccc(C(=O)NCC(c2ccco2)N(C)C)cc1OC (configuration not stated)	-0.5
CCCOc1ccc(N2C(=O)CC(NCc3cccs3)C2=O)cc1 (configuration not stated)	-0.8
O=Cc1c(SCCO)nc2ccccn2c1=O	0.9
O/N=C1\CCCc2oc3c(c21)CCCC3	-0.2
CCN(CC)C(=O)CSc1nc(C)cc(-c2cccs2)c1C#N	-0.9

Reprinted from above for reference:
SMILES	STK33 inh
O/N=C1\CCCc2oc3c(c21)CCCC3	-0.2
CCN(CC)C(=O)CSc1nc(C)cc(-c2cccs2)c1C#N	-0.9

Back to the main list; the 4 compounds before the break are reprinted first.
SMILES	STK33 inh
CCCOc1ccc(N2C(=O)CC(NCc3cccs3)C2=O)cc1 (configuration not stated)	-0.8
O=Cc1c(SCCO)nc2ccccn2c1=O	0.9
O/N=C1\CCCc2oc3c(c21)CCCC3	-0.2
CCN(CC)C(=O)CSc1nc(C)cc(-c2cccs2)c1C#N	-0.9
CCOC(=O)C1CCCN(/C=C2\SC(=S)N(CC)C2=O)C1 (configuration not stated)	-11
CC(C)CCc1noc(CN(C)CC2CCN(Cc3ccccc3)CC2)n1	-2.6
CC(C)(C)C(=O)N1CCn2c1nc1ccccc12	-1.5
Fc1ccc(CNc2ccccn2)cc1	2.4
COc1cccc(NC(=O)c2ccc(N3C(=O)C4CC=CCC4C3=O)cc2)c1 (configuration not stated)	-1.4
CCCN1C(=O)/C(=C/c2ccc(N3CCOCC3)cc2)NC1=S	0.8
COC(=O)C1=C(N)OC2=C(C(=O)CCC2)C1c1ccccc1OC (configuration not stated)	1.8
O=C(c1ccc2[nH]c3c(c2c1)CCCC3)N1CCN(c2ccc(F)cc2)CC1	-0.3
C/C(=N/NC(=O)C(O)(c1ccccc1)c1ccccc1)c1ccc([N+](=O)[O-])o1	-1.8
CCS(=O)(=O)c1ccc(-c2csc(-c3ccccc3)n2)c(Cl)c1Cl	1.4
Cc1ccc(C(=O)COC(=O)CNC(=O)Cc2ccccc2)cc1[N+](=O)[O-]	0.2
O=S(=O)(Nc1ccc2cn[nH]c2c1)c1ccc(Cl)s1	-0.3
COc1cc(Cl)ccc1OCc1cc(C(=O)N2CCCCCCC2)no1	6.7
Cc1ccc(C)c(NC(=O)c2ccc(N(C)S(C)(=O)=O)cc2)c1	0.9
Cc1cccc(C)c1NC(=O)CN(C)C(=O)c1ccccc1Cc1ccccc1	-3.2
N#Cc1cc2ccccc2nc1SCC(=O)Nc1ccc(S(=O)(=O)N2CCCC2)cc1	0.1
COc1cc(NC(=O)Cn2cnc3c(nc4n3CCCCC4)c2=O)cc(OC)c1OC	1.2
Nc1ccc(S(=O)(=O)NC2=NCCCCC2)cc1	-0.7
CNC(=S)Nc1cccc(Cl)c1C	0.5
Cc1ccc(-n2c(N)c(C(=O)NCc3ccco3)sc2=S)cc1	-0.7
CCOC(=O)c1cc(-c2ccccc2)sc1NC(=O)CN1C(=O)NC(CC)(c2ccccc2)C1=O (configuration not stated)	-1.0
O=C(Cn1nc([N+](=O)[O-])nc1Br)NC(c1ccccc1)c1ccccc1	0.9
O=C(CSc1ncccn1)NCCC1=CCCCC1	-1.7
O=C(NCCCN1CCOCC1)c1ccc2c(=O)n(Cc3ccc(Cl)cc3)c(=S)[nH]c2c1	0.8
Cc1cc(C)cc(OCC(=O)Nc2nc(-c3cccnc3)cs2)c1	-1.6
COC(=O)c1nnn(CC(=O)Nc2cccc(Cl)c2)c1C(=O)OC	0.2
Cc1cc(C)n2nnnc2c1C#N	-2.8
O=C(NCc1ccccc1)C(=O)NCC(c1ccco1)N1CCN(c2ccccc2F)CC1 (configuration not stated)	-0.2
CCC(=O)N1CCN(c2ccccc2NC(=O)c2ccc(OC)c(Cl)c2)CC1	0.4
CSc1ncc(C(=O)Nc2ccccc2C)c(C)n1	-1.3
CC1=NC(C#N)=C(C#N)NC(C)(C)C1	0.2
Cc1nc2ccccc2n1CC(O)COC1CCCCC1 (configuration not stated)	0.1
Nc1ccc(C2CCCc3nonc32)c2nonc12 (configuration not stated)	-0.9
CCOc1ccc(NC(=O)CN(C)CC(=O)Nc2cc(Cl)ccc2C#N)cc1OCC	1.1
COc1ccc(OCc2cccc(C(=O)Nc3cc(C)on3)c2)cc1	-0.4
Cc1ccc(NC(=O)c2cnc(SCC(=O)NCC3CCCO3)n(C)c2=O)cc1C (configuration not stated)	-0.4
COc1c(N)c2ccccc2[nH]c1=O	2.2
CCN1CCN(C(=O)CN(CC)S(=O)(=O)c2ccc(Cl)cc2)CC1	-0.9
CCN(CC(=O)Nc1ccc(C)c(F)c1)CC(=O)NC(C)C	-1.1
O=C(COC(=O)/C=C/c1ccc(OC(F)F)cc1)NCCN1C(=O)CSC1=O	-1.5

Copied from the list:
COC(=O)c1nnn(CC(=O)Nc2cccc(Cl)c2)c1C(=O)OC in STK33 inh is entered as 0.2
CCN(CC(=O)Nc1ccc(C)c(F)c1)CC(=O)NC(C)C in STK33 inh is entered as -1.1
CSc1ncc(C(=O)Nc2ccccc2C)c(C)n1 in STK33 inh is entered as -1.3

The results go on:
SMILES	STK33 inh
CC1=NC2(CCCc3c2no[n+]3[O-])N(O)C1(C)C (configuration not stated)	-0.9
CC(=O)Nc1cc(-c2ccc(Cl)cc2)[nH]n1	3.3
O=C(COC(=O)c1ccc2c(c1)C(=O)N(Cc1ccncc1)C2=O)Nc1ccccc1[N+](=O)[O-]	-0.3
CSc1ccc(NC(=O)CC(C)=O)cc1	-1.3
COc1ccc(C(=O)NCc2ccc(C(=O)O)o2)cc1	-0.2
Cc1nn(C)c(NC(=O)c2ccccc2Cl)c1Br	2.4
CC(=O)Nc1c(O)[nH]c2ccccc12	-0.5
O=C(/C=C/c1c(Cl)nc2ccccn12)N1CCCCC1	-1.1
COc1ccc(C(CC(=O)NC(C)c2ccc(-c3ccccc3)cc2)NC(C)=O)cc1 (configuration not stated)	-0.1
O=C(NCCCn1ccnc1)Nc1ccc(Cl)c(Cl)c1	1.0
CCC(C)(C)n1nnnc1C(c1ccc2ncccc2c1)N1CCCC(C)C1 (configuration not stated)	-1.4
COc1ccc(NC(=O)C2CCC(=O)N2)cc1 (configuration not stated)	-1.2
CN1CC[C@]23c4ccccc4N[C@H]1[C@]21CCN(C)[C@H]3Nc2ccccc21	-0.7
CCOC(=O)c1cc(C(=O)c2ccccc2O)cn2c(=O)c3c(C)c(C)sc3nc12	-0.1
CCC(C)(C)NC(=O)/C=C/c1ccc(OC)c(S(=O)(=O)N2CCOCC2)c1	-1.7
CCC(C)(c1ccc(C(=O)OC)s1)c1ccc(C(=O)OC)s1	4.5
Cc1ccc(NS(=O)(=O)c2cccc(C(=O)NCC3(N(C)C)CCCCC3)c2)cc1	0.0
Cc1ccc(OCC(=O)N(Cc2ccco2)C2CCS(=O)(=O)C2)cc1 (configuration not stated)	-1.6
COc1cc2c(cc1OC)-c1n[nH]c(=S)n1C(C)(C)C2	-0.3
COc1ccc(C(=O)NCc2ccc3c(c2)OCO3)cc1	-0.5
O=C(Nc1ccc(Cl)cc1)N1CCOCC1	-0.5
Cc1ccc(/C=C2\C(=N)N3N=C(CC(=O)N4CCCCC4)SC3=NC2=O)cc1	-2.2
Cc1cc(C)cc(-n2ccnc2SCC(=O)Nc2ccc3c(c2)OCCO3)c1	-1.3
O=C(NC1CCCCC1)N1CCC(n2c(=O)[nH]c3ccccc32)CC1	-1.3
CCOC(=O)CCCCC(=O)c1[nH]c(=O)[nH]c1CN1CCOCC1	-1.6
CC1(O)C(=O)C=C2C=C(c3ccc(C#N)cc3)OC=C2C1=O (configuration not stated)	-0.4
CN(C)c1ccc2c(=O)[nH][nH]c(=O)c2c1	0.2
COC(CNC(=O)c1ccc2nc3ccccc3c(=O)n2c1)OC	0.5
Cc1ccc(C(=O)NCC(=O)Nc2ccncc2)cc1	-1.4
Cc1cc(C)n2nc(SCC(=O)N/N=C/c3ccccn3)nc2n1	-1.2
COC(=O)c1c(NC(=O)COC(=O)Cn2cnc3ccccc32)sc2c1CCCC2	-0.9
CC(C)(C)C(=O)O/N=C(\N)c1ccc(Br)cc1	-0.3
Cc1noc(C)c1CSc1ncnc2sc3c(c12)CCC(C)C3 (configuration not stated)	0.5
CCOc1ccc(OCCC(=O)OCC(=O)NCc2ccccc2)cc1	-0.1
COc1cc(CCC(=O)N2CCN(c3ccc(N4CCOCC4)nn3)CC2)cc(OC)c1OC	-1.1
CC(C)c1cc(=O)[nH]c(SCC(=O)NC2CCCC2)n1	-1.9
CCN1CCN(CCc2nc3cc([N+](=O)[O-])ccc3n2C)CC1	-0.2
COc1cccc(NC(=O)COC(=O)CC(NC(N)=O)c2ccc(Cl)cc2)c1 (configuration not stated)	-2.1
COc1cc(CCCN2CCNC[C@H]2Cc2ccc(O)cc2)cc(OC)c1OC	-1.6
O=C(COc1ccccc1O)N1CCN(C(=O)c2ccco2)CC1	-3.2
O=C1C2C3C=CC(C3)C2C(=O)N1c1cccc(N2C(=O)C3C4C=CC(C4)C3C2=O)n1 (configuration not stated)	-1.8
C=CCNC(=S)NCc1cccnc1	-0.2
COc1cc(/C=N/N=C(\N)c2nonc2N)cc(OC)c1OC	-0.8
COc1ccccc1OC1=NS(=O)(=O)c2ccccc21	-0.5
CCOc1ccccc1C(=O)NC(C(=O)NCc1ccccc1OC)C(C)C (configuration not stated)	-0.9
COc1ccc(-n2cnnc2SCC(=O)c2ccc(S(=O)(=O)N3CCOCC3)cc2)cc1	-1.1
CCc1ccc(S(=O)(=O)/N=C2\C=CC(=O)c3ccccc32)cc1	-0.5
Cc1cccc(C)c1N=C1SC(CC(=O)Nc2c(C)cccc2C)C(=O)N1CCc1ccccn1 (configuration not stated)	-0.3
O=c1[nH]cnc2c1nc(SCc1ccccc1)n2C1OC(CO)C(O)C1O (configuration not stated)	-1.2
COc1ccc(-c2ccc(C(=O)O)o2)c([N+](=O)[O-])c1	0.4
CCOC(=O)Cn1c(=O)oc2cc(S(=O)(=O)Nc3cc(OCC)ccc3OCC)ccc21	-1.3
Cc1c2cnn(-c3ccccc3)c(=O)c2c(C)n1CCCC(=O)NCCN1CCN(C)CC1	-1.2
COc1ccc(-c2nn(-c3ccccc3)cc2C(=O)NCC(c2cccs2)N2CCOCC2)cc1 (configuration not stated)	-0.6
CC(=O)c1ccc(NC(=O)CN2CCC(C(=O)c3ccc(F)cc3)CC2)cc1	-0.7
COc1cccc(-n2cc(C(=O)NC(C)C)c3ccccc3c2=O)c1	0.4
CCCNC(=O)COc1ncnc2sccc12	-1.1
COc1cccc(CC(=O)Nc2nc(-c3cccnc3)cs2)c1	0.8
O=C1CCCC(=O)N1c1ccc(N2CCOCC2)c([N+](=O)[O-])c1	5.0
CCN(CC(=O)Nc1cccc(C#N)c1)CC(=O)Nc1cccc(OC)c1	-1.8
CCCOc1ccc(C(=O)CCC(=O)NNC(=O)Cn2nc(C)cc2C)cc1	0.6

Carrying on.
SMILES	STK33 inh
CCn1c2ccccc2c2cc(NC(=O)COc3ccccc3)ccc21	-4.2
COc1ccccc1OCCNc1cc(N2CCOCC2)ccc1[N+](=O)[O-]	-0.6
CCOC(=O)N1CCC(NC(=O)Cc2ccccc2)CC1	-0.7
CC(=O)c1cc(C#N)c(Oc2cccc(C(F)(F)F)c2)nc1C	-0.3
COc1ccc(OCCCCN(C)Cc2ccccc2)cc1	-8.4
O=C(NCc1ccccc1)c1cc(-n2cnnc2)ccc1Cl	0.0
CCC1CN(C(=O)N2CCC(C(=O)NCc3ccc(C)o3)CC2)c2cc(C)ccc2O1 (configuration not stated)	-1.5
O=C(CN1C(=O)S/C(=C\c2ccccc2)C1=O)Nc1cc([N+](=O)[O-])ccc1O	-1.9
Cc1nn(C)cc1S(=O)(=O)N1CCN(Cc2ccc(F)cc2Cl)CC1	-1.0
COCCN1C=C2C(=O)C(C)(OC(=O)c3cccs3)C(=O)C=C2C=C1CCCC(=O)OC (configuration not stated)	-0.2
Cc1ccc(Nc2nc(N)nc(CN3CCCCCC3)n2)cc1	0.6
Cc1cc(C(=O)Nc2ccccc2Cl)n(-c2ccccc2)n1	-1.1
Cn1c(CNc2nc3ccccc3n2C)nc2ccccc21	1.8

Quoted at random: 7 records from the list
SMILES	STK33 inh
CCC1CN(C(=O)N2CCC(C(=O)NCc3ccc(C)o3)CC2)c2cc(C)ccc2O1 (configuration not stated)	-1.5
COc1ccccc1OCCNc1cc(N2CCOCC2)ccc1[N+](=O)[O-]	-0.6
Cc1cc(C(=O)Nc2ccccc2Cl)n(-c2ccccc2)n1	-1.1
O=C(NCc1ccccc1)c1cc(-n2cnnc2)ccc1Cl	0.0
O=C(CN1C(=O)S/C(=C\c2ccccc2)C1=O)Nc1cc([N+](=O)[O-])ccc1O	-1.9
CCn1c2ccccc2c2cc(NC(=O)COc3ccccc3)ccc21	-4.2
COc1ccc(OCCCCN(C)Cc2ccccc2)cc1	-8.4

Only part of the results is shown, and most or all hits are left out here.
